STAT1 blocker: inhibitors of IFN-gamma induced STAT1 signaling; 200,000 compounds, 0.35% hits; NIH 3T3 STAT1-luciferase reporter, luminescence; inhibition, % at 5.5 µM;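 active means inhibition above a set limit, the mean inhibition across all tested compounds plus 3 SD, cut at about 34% in these data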;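 further: 0% = IFN-gamma with DMSO and 100% = IFN-gamma with 300 µM nifuroxazide; values of inactives mirror those of a sister screen read the other way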
PPARg SRC-1 ag: promotes SRC-1 coactivator recruitment by human PPARgamma; P37231; PPARgamma-SRC-1 coactivator recruitment biochemical assay; activation, % at 8 µM; 200,000 compounds, 0.41% hits; AID 631; in the data active means activation above about 19%;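 further: 0% = DMSO and 100% = reference agonist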
PPARg SRC-3 ag: promotes SRC-3 coactivator recruitment by human PPARgamma; AID 731; P37231; biochemical PPARgamma/SRC-3 coactivator recruitment assay; 200,000 compounds, 0.26% hits; activation, % at 8 µM; in the data active means activation above about 23%;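 further: 0% = DMSO and 100% = reference agonist; some compounds past the cut are filed as inactive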
ROMK primary: human ROMK K+ channel modulation, primary screen; Tet-inducible ROMK, thallium flux fluorescence; actives lie on both sides; B-score at 10 µM; 130,000 compounds, 2% hits;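 active means signal ratio slope over the read window, or its plate-corrected B-score, at least 3 SD from the plate mean, either direction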;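 further: B-score of the F/F0 ratio slope over 7 to 12 s after thallium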
Target sequence (P48048 whole entry, looked up): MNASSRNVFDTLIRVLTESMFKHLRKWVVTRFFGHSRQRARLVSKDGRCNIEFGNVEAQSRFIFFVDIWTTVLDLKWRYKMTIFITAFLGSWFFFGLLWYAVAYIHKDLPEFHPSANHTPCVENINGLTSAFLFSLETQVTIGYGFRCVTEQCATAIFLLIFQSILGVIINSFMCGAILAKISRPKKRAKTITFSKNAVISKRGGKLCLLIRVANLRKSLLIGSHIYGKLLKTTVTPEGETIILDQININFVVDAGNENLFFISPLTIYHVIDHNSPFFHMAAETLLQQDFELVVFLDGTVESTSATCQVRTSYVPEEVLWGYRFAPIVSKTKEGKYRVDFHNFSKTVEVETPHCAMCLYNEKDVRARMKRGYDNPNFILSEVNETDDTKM
PPARg SRC2 recr: agonists of SRC-2 recruitment by human PPARgamma | PPARgamma LBD-SRC-2 recruitment, biochemical | activation, % at 8 µM | AID 1032 | 200,000 compounds, 0.34% hits; in the data active means activation above about 22%;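 further: 0% = vehicle and 100% = reference agonist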
SRC2 TRFRET art: TR-FRET artefact, counter-screen to PPARgamma/SRC-2 agonist assay; stronger effect = higher value; TR-FRET ratio at 8 µM; 200,000 compounds, 0.4% hits; in the data active means TR-FRET ratio above about 2000; further: inactives centre near 1500; reference of the scale not given here
* = called active by the depositor; x = not tested or not shown.

1: Cc1sc2ncnc(NCCc3ccc(S(N)(=O)=O)cc3)c2c1C
2: CCN(CC)CCCNC(=O)CCC(=O)NNc1nc2ccccc2c2nc(C)nn12
3: Cn1cc(Br)c(C(=O)NNC(=O)c2cccc(Br)c2)n1
4: COc1ccc(-c2cc(NCc3ccccn3)n3ncnc3n2)cc1
5: CCCNC(=O)c1ccc(-c2nc3ccccc3s2)s1
6: O=C(Nc1nc2cc3c(cc2s1)OCO3)C1=COCCO1
7: Cc1ccc(C)c(NC(=S)NNC(=O)c2ccc(Br)o2)c1
8: O=C(Nc1ncn[nH]1)c1cc(S(=O)(=O)Nc2ccc(Cl)cc2)ccc1Cl

| entry no. | 1 | 2 | 3 | 4 | 5 | 6 | 7 | 8 |
| --- | --- | --- | --- | --- | --- | --- | --- | --- |
| STAT1 blocker | 30 | -11 | 1 | 8 | 13 | 49* | -1 | 1 |
| PPARg SRC-1 ag | -2 | 6 | 4 | 1 | -1 | 7 | 0 | 2 |
| PPARg SRC-3 ag | -6 | 2 | 2 | -4 | -3 | 3 | 3 | 1 |
| ROMK primary | -1.3 | x | x | x | x | 2.5* | x | 0.04 |
| PPARg SRC2 recr | 13 | -2 | 0 | 0 | 3 | 11 | -1 | 7 |
| SRC2 TRFRET art | 1390 | 1481 | 1470 | 1383 | 1553 | 1549 | 1609 | 1684 |

Entries above shown as hits in STAT1 blocker.
nr	molecule	STAT1 blocker	PPARg SRC-1 ag	PPARg SRC-3 ag	ROMK primary	PPARg SRC2 recr
6	O=C(Nc1nc2cc3c(cc2s1)OCO3)C1=COCCO1	49*	7	3	2.5*	11

Filtered by structure, those above with four or more nitrogen atoms.
1: Cc1sc2ncnc(NCCc3ccc(S(N)(=O)=O)cc3)c2c1C
2: CCN(CC)CCCNC(=O)CCC(=O)NNc1nc2ccccc2c2nc(C)nn12
3: Cn1cc(Br)c(C(=O)NNC(=O)c2cccc(Br)c2)n1
4: COc1ccc(-c2cc(NCc3ccccn3)n3ncnc3n2)cc1
8: O=C(Nc1ncn[nH]1)c1cc(S(=O)(=O)Nc2ccc(Cl)cc2)ccc1Cl

| entry no. | 1 | 2 | 3 | 4 | 8 |
| --- | --- | --- | --- | --- | --- |
| STAT1 blocker | 30 | -11 | 1 | 8 | 1 |
| PPARg SRC-1 ag | -2 | 6 | 4 | 1 | 2 |
| PPARg SRC-3 ag | -6 | 2 | 2 | -4 | 1 |
| ROMK primary | -1.3 | x | x | x | 0.04 |
| PPARg SRC2 recr | 13 | -2 | 0 | 0 | 7 |
| SRC2 TRFRET art | 1390 | 1481 | 1470 | 1383 | 1684 |

More entries follow:
9: CC(=O)NNc1ncnc2c1cnn2-c1ccc(C)cc1
10: O=C1Nc2ccc(Br)cc2C12NNc1ccccc1O2 (stereo not drawn)
11: CC1(C)CC(N2CCCCC2)=CC(=[N+]2CCCCC2)C1
12: O=C(Nc1ncn[nH]1)c1ccc(Cl)c(S(=O)(=O)N2CCCCCC2)c1
13: Nc1ccc(-c2cnc(-c3ccc(N)cc3)nc2)cc1
14: O=c1c(Cl)c(N2CCCCC2)cnn1-c1nc2ccccc2[nH]1
15: O=C(Nc1ncn[nH]1)c1cc(S(=O)(=O)Nc2cccc(C(F)(F)F)c2)ccc1Cl

| entry no. | 9 | 10 | 11 | 12 | 13 | 14 | 15 |
| --- | --- | --- | --- | --- | --- | --- | --- |
| STAT1 blocker | -16 | 0 | 31 | -3 | -40 | 71* | -4 |
| PPARg SRC-1 ag | 0 | 1 | 9 | -3 | 12 | -4 | 2 |
| PPARg SRC-3 ag | 3 | 1 | 1 | 2 | 23 | 8 | 5 |
| ROMK primary | 0.4 | -1.2 | 0.66 | 1.7 | -0.22 | x | -0.8 |
| PPARg SRC2 recr | 4 | -3 | 14 | 6 | 5 | 10 | 2 |
| SRC2 TRFRET art | 1647 | 1476 | 1652 | 1452 | 1752 | 1523 | 1538 |

An excerpt (hit frequency here may not be typical).
